# Choline anaer gr = blocks anaerobic gram-negative growth on choline | Gram-negative bacterium anaerobic choline minimal medium, absorbance growth; stronger effect = lower value; many inactives read as strong as hits in the columns shown | AID 1963822 | calls only | 0.2% of 55,000 active;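 active = growth z-score on choline under -2 at 7 or 20 h with little or no fall on glycerol, limits in tiers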;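 also: stock transfer was 300 nL into about 50 µL; the organism is E. coli; final concentration not given here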
# Choline anaer gr early = second read-out of Choline anaer gr, no call of its own (marks repeat the call); z-score; measured here: choline growth z-score, timepoint 1;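 score of optical density at 7 h as mean of two plates; lower means less growth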
# Numbers without * were called inactive; i = inactive; + = active, no number; & = joins results of further samples.
Choline anaer gr | Choline anaer gr early | smiles
i | 0.01 | Cc1cc2c(cc1C)NC1(CCCCC1C)C(=NCc1cccc(F)c1)N2 (stereo not given)
i | 0.23 | Cc1cc(-c2ccc(S(=O)(=O)N3CCC(C)CC3)cc2)on1
i | 0.26 | CN(Cc1ccccc1)C(=O)c1cc(NC(=O)c2ccccc2F)cnc1N1CCNCC1
i | -1.94 | CCOC(=O)c1nc(Nc2cc(OC)ccc2OC)c2c(C)noc2n1
i | 0.31 | Cc1cc(C)n(CC(=O)Nc2ccc(F)cc2Cl)c(=O)c1S(=O)(=O)c1ccccc1
i | 0.87&-2.85 | COC(=O)Nc1nc2ccc(Sc3ccccc3)cc2[nH]1
i | 0.22 | Cc1ccc(-c2nc3cnccn3c2Nc2ccc3c(c2)OCO3)cc1
i | -0.66 | NO
i | -0.6 | CC(C)c1ccc(NC(=O)CSc2nc(-c3ccc4c(c3)OCO4)nc3cc(=O)[nH]n23)cc1
i | -0.85 | Cc1ccc(S(=O)(=O)CC(=O)Nc2sccc2C(N)=O)cc1
i | 0.03 | Fc1ccc(-c2nn3c(-c4ccccn4)nnc3s2)cc1Br
i | 0.91 | CC1CN2C(=O)Cc3c(S(=O)(=O)N(C)Cc4ccccc4)ccc(c32)S1 (stereo not given)
i | 0.37 | COC(=O)c1cc(C)nc2c1c(=O)nc(SCc1nc(-c3ccccc3C)oc1C)n2C1CC1
i | 0.04&0.06&0.67 | COC(=O)C1=C(C)NC(C)=C(C(=O)OC(C)C)C1c1cccc2nonc12 (stereo not given)
i | 1.48 | C=Cc1ccc(COC(=O)c2nnn(-c3ccccc3)c2C)cc1
i | -0.53 | COc1ccc(S(N)(=O)=O)cc1-c1noc(C)n1
i | 0.61 | c1cc(N2CCCCC2)ncc1-c1noc(CN2CCOCC2)n1
i | 0.47 | CCCS(=O)(=O)N1CC(=O)N(c2ccc(C)c(F)c2)C(C)(C(=O)NC2CCCC2)C1 (stereo not given)
i | -1.02 | Cc1noc2c1C(c1ccc(O)cc1)C1=C(CC(c3ccccc3)CC1=O)N2 (stereo not given)
i | 0.17 | Cc1cc(C)cc(-n2c(CN3CCN(C(=O)NCC(C)C)CC3)nc3cccnc32)c1
i | 0.13&-2.95 | CCC[C@@H]1C[C@@H](C(=O)N[C@@H]([C@H]2O[C@H](SC)[C@H](O)[C@@H](O)[C@H]2O)[C@H](C)Cl)N(C)C1
i | 2.08 | CN(C)S(=O)(=O)c1ccc2nc(NC(=O)c3ccc4c(c3)OCCO4)sc2c1
i | -1.02 | Cc1cc(F)ccc1NC(=O)CN(C)S(=O)(=O)c1ccc2c(c1)CC(C)N2C(=O)C1CC1 (stereo not given)
i | -0.2 | Cc1nn(C)c(C)c1S(=O)(=O)N1CCCC(c2nnc(C(=O)Nc3cccc(Cl)c3)s2)C1 (stereo not given)
i | -0.38 | CC(=O)N(Cc1ccccc1C)c1nc2ccccc2n(CC(=O)Nc2ccc(F)c(Cl)c2)c1=O
i | 0.02 | CC(=O)Nc1cc(-c2nc(-c3ccc4c(c3)nnn4CCC(=O)N3CCCC3)no2)ccc1C
i | -0.62 | Cc1ccc(C(=O)N2CCN(Cc3nc4cc(C(=O)N5CCCC5)ccc4n3C)CC2)cc1C
i | 0.58 | CCCCCCCCCCCCCCCCCC(=O)OC(CC(=O)O)C[N+](C)(C)C (stereo not given)
i | -1.43 | C=CCNc1ncnc2sc3c(c12)CCCC3
i | 0.66 | CC(=O)N(c1ccc(Cl)cc1)C1C=CS(=O)(=O)C1 (stereo not given)
i | 0.18 | O=C1COc2ccccc2N1Cc1nc(-c2ccc(N3CCOCC3)cc2)no1
i | -1.09 | Cc1ccc(-c2nnc(SCc3cccc(Cl)c3)o2)cc1
i | 0.14 | CCc1ccc(S(=O)(=O)Nc2ccc3c(c2)nc(-c2ccc(C(=O)NC)cc2)n3C)cc1
i | 0.53 | Cc1nc(-c2ccc(C)c(S(=O)(=O)N3CCC(C(=O)N4CCN(c5ccccc5F)CC4)CC3)c2)no1
i | 0.49 | CCC(=O)Oc1cccc(-n2cnnn2)c1
i | -0.38 | O=C(Nc1cccc(F)c1)c1nnc(CCCC(=O)N2CCN(c3ccccn3)CC2)s1
i | -1.48 | O=S(=O)(c1cc(-c2nnc(C3CC3)o2)co1)N1CCCC1
i | 0.23 | Cn1c(=O)c2c(nc(CN3CCC(Cc4ccccc4)CC3)n2Cc2ccccc2)n(C)c1=O
i | 1.09 | Cc1ccc(-c2cccc3c(C(=O)NCCN(C)Cc4ccccc4)cc(C)nc23)cc1
i | 0.3 | Cc1cc2nc(COC(=O)c3ccc(NC(=O)c4cccc(F)c4)cc3)cc(=O)n2o1
i | -0.65 | Cc1nn(Cc2ccccc2Cl)c(=O)c2noc(C)c12
i | 0.14 | COCCNC(=O)CCCCn1c(=O)[nH]c2cc(OC)c(OC)cc2c1=O
i | 0.85 | COc1ccc(C2CC(=O)c3cc(C(=O)Nc4ccc5c(c4)OCCO5)c(=O)[nH]c3C2)cc1 (stereo not given)
i | -1.36 | O=C(CCCc1nnc2c(=O)n(-c3cccc(F)c3)ccn12)Nc1ccc(F)cc1
i | -2.39 | CC1CN(c2ccc(Cl)cc2)c2nc3c(c(=O)n(C)c(=O)n3C)n2C1 (stereo not given)
i | 0.16 | O=S(=O)(c1ccccc1)N1CCC(n2cnc3cccnc32)CC1
i | 0.1 | FCOC(C(F)(F)F)C(F)(F)F
i | -1.4 | CCOC(=O)c1c(C)[nH]c(C)c1S(=O)(=O)N1CCC(C(=O)NCC2CCCO2)CC1 (stereo not given)
i | 1.35 | O=C(NCc1ccccc1Cl)c1cccc(C(=O)NCc2ccccc2Cl)n1
i | -1.32 | Cn1nnc2cc(-c3noc(CNC(=O)c4ccccc4)n3)ccc21
i | -0.7 | CCC(=O)Nc1ccc2c(c1)nc(CN1CCCC1)n2CC
i | -1 | O=C(c1ccc2ccnc(N3CCN(c4ccccc4F)CC3)c2c1)N1CCCC1
i | 2.53 | Cc1cccc(-c2nc(C3CCN(C(=O)Cc4ccccc4Br)CC3)no2)c1
i | 0.3 | CC1CCCN(C(=O)[C@H]2[C@@H]3C[C@@H]4[C@H]2C(=O)O[C@@H]4C3)C1 (stereo not given in full)
i | 0.9 | CCC1Cn2c(C(=O)NC(C)C)cc3cccc(c32)O1 (stereo not given)
i | -0.07 | CC(=O)NCCc1c[nH]c2ccc(OCc3ccccc3)cc12
i | 0.27 | N#CC1=CN(c2cc(F)cc(F)c2)c2cc(Cl)ccc2S1(=O)=O
i | 1.79 | O=C(Nc1ccc2oc(-c3ccccc3Br)nc2c1)c1ccc2c(c1)OCCO2
i | 0.25 | CCN(CC)C(=O)c1cc2c(s1)CCC(C(=O)N1CCN(C)CC1)C2 (stereo not given)
i | 0.62 | COc1ccc(NC(=O)C2CCCN(c3ncnc4c3oc3ccccc34)C2)cc1OC (stereo not given)

# (listing goes on)
Choline anaer gr | Choline anaer gr early | smiles
i | 0.02 | O=C(Cn1cnc2c(sc3ncccc32)c1=O)NC1CCCC1
i | -0.67 | CC1CN(c2ncnc3c2cnn3-c2ccccc2Cl)CC(C)O1 (stereo not given)
i | 0.13 | Cc1cc(=O)[nH]c(Nc2ccc(Oc3ccccc3)cc2)n1
i | 1.14 | Cc1nn(-c2nc3ccccc3[nH]2)c2c1C(c1ccsc1)CC(=O)N2 (stereo not given)
i | -0.21 | Cc1nn(-c2ccc(-c3ccccc3)nn2)c(C)c1S(=O)(=O)Nc1ccc2c(c1)OCCO2
i | 0.62 | O=C(c1ccc2snnc2c1)N1CCCCC1
i | -3.41 | Cc1ccc(NC(=O)N2CCC(C)(C(=O)NCc3ccc4c(c3)OCO4)CC2)c(Cl)c1
i | -1.45 | Cc1ccc(NC(=O)N2CCN(Cc3ccc4nccnc4c3)CC2)cc1
i | 0.38 | Cc1nc(-c2ccc(N3CCN(C(=O)c4cncc(Br)c4)CC3)cc2)no1
i | -0.17 | Cc1cc(C)nc(NC(c2cccc(Cl)c2)c2cc(C)sc2NC(=O)c2ccccc2)n1 (stereo not given)
i | 0.98 | CCOc1ccccc1NC(=O)c1c(C)oc2ccc(OC)cc12
i | -0.42 | O=C(O)C1CSC(c2cccc(OCc3ccc(F)cc3)c2)N1 (stereo not given)
i | -2.82 | Cc1noc(C)c1C1CCCN1C(=O)Cn1nc(C(F)(F)F)cc1C (stereo not given)
i | 0.97 | CNC(=O)[C@H]1O[C@@H](n2cnc3c(NCc4cccc(I)c4)nc(Cl)nc32)[C@H](O)[C@@H]1O
i | 0.15 | Cc1nc2ccccn2c(=O)c1NC(=O)c1ccccc1F
i | 0.55 | O=C(Cn1ccn2nc(-c3ccc4c(c3)OCO4)cc2c1=O)NC1CCCC1
i | 0.67 | Cc1cccc(CN2C(=O)C3CCCC3=Nc3cc(C)c(C)cc32)c1 (stereo not given)
i | -0.43 | CN(CCNC(=O)c1nn(C)c2c1CCc1sccc1-2)C1CCCCC1
i | -0.73 | O=C(Cn1c(=O)n(Cc2ccc3c(c2)OCO3)c(=O)c2ncccc21)c1ccc(Cl)cc1
i | -0.35 | Cc1ccc(C)c(N2CCN(CCCNC(=O)c3nnc(-c4ccccc4)o3)CC2)c1
i | -0.42 | CC1CCc2c(sc3nc(CCC(=O)N4CCN(c5ccc(Cl)cc5)CC4)[nH]c(=O)c23)C1 (stereo not given)
i | 0.34 | CCCNc1cc(C)nc2c(-c3ccc(C)cc3)c(C(F)(F)F)nn12
i | 0.04 | CCCN1C(=O)COc2ccc(-c3noc(C4CCCO4)n3)cc21 (stereo not given)
i | 0.11 | Cc1ccc(N2CCn3c(nc4ccccc43)C2)cc1N
i | 0.88 | CC1Cc2ccccc2N1C(=O)CCc1nc(-c2ccc(S(=O)(=O)N3CCOCC3)cc2)no1 (stereo not given)
i | -0.16 | CCS(=O)(=O)Nc1cnc(N(C)CCCc2c(C)nn(C)c2C)c(C(=O)O)c1
i | -0.02 | CCCc1ccc(S(=O)(=O)Nc2ccc3nc(S(=O)(=O)CCC)sc3c2)cc1
i | -0.68 | CCCc1cc(C2CCCN2C(=O)Cc2ccc(Cl)cc2)no1 (stereo not given)
i | -1.92 | CC1=C(c2ccccc2)S(=O)(=O)N=C1N1CCC(NC(=O)NC(C)C)CC1
i | 0.45 | CCCCCc1c(C)nn(-c2nc(CC(=O)Nc3nc4ccccc4[nH]3)cs2)c1C
i | -0.05 | O=C(NC1CCCC1)C1CCCN(c2ccc3cc(S(=O)(=O)N4CCCCC4)ccc3n2)C1 (stereo not given)
i | 0.78 | CC(C)(C)Nc1c(-c2ccccc2)nc2sc3ccccc3n12
i | 0.53 | CO[C@]12C[C@@H](COC(=O)c3cncc(Br)c3)CN(C)[C@@H]1CC1=CN(C)C3C=CC=C2C13 (stereo not given in full)
i | -0.31 | CCCn1c(=O)c2ccc(C(=O)NC(C)C)cc2n2c(SCC(=O)c3cc(C)ccc3C)nnc12
i | -0.64 | O=c1c(O)c(N2CCc3ccccc3C2)c1=O
i | -0.12 | COc1ccccc1N1CCN(C(=O)C(C)Sc2nc(-c3ccccc3)cc(C(F)(F)F)n2)CC1 (stereo not given)
i | 1.08 | Clc1cccc(COc2cccc3ccc(N4CCCC4)nc23)c1
i | -0.44 | Cc1ccccc1NC(=O)c1c(C)oc2ccc(O)c(CN3CCCC3)c12
i | -0.33 | CC1CCN(C(=O)CSc2nc(-c3ccccc3)nc3cc(=O)[nH]n23)CC1
i | -0.86 | Cc1cc(-c2cc(S(=O)(=O)N3CCCCCC3)c(C)s2)on1
i | 0.04 | CCn1c(=O)c2ccn(CC(=O)Nc3cccc(Cl)c3)c2n(CC)c1=O
i | 1.05 | CN1CC(O)C(O)C(O)C1CO (stereo not given)
i | 0.2 | CN(C)CC(=O)N1c2ccccc2CCc2ccc(NC(=O)c3ccccc3)cc21
+ | -1.43* | CC(C)c1nnc(-c2ccc(S(=O)(=O)NC3CCCC3)o2)o1
i | 0.99 | O=S1(=O)N=CN(c2ccccc2F)c2ncccc21
i | -0.4 | C=CCOc1c(Cl)cc(CNCCNC(=O)c2nonc2N)cc1OC
i | 1.43 | COc1ccccc1CC(=O)Nc1ccc(-c2noc(-c3ccc(Cl)cc3)n2)cc1
i | -0.19 | NC1(C(=O)O)CC1
i | -0.66 | CCOCCCNC(=O)NCCC1CCN(C(=O)Nc2cccc(Cl)c2)CC1
i | 0.14 | COc1ccc(Cl)cc1NC(=O)N1Cc2c(sc3c2CCN(C)C3)-n2cccc2C1C (stereo not given)
i | -0.55 | Cc1nn(-c2nc3ccccc3s2)c2c1C(c1ccc(F)c(Br)c1)CC(=O)N2 (stereo not given)

# 14 neighbouring compounds from above, quoted:
Choline anaer gr | Choline anaer gr early | smiles
i | -0.44 | Cc1ccccc1NC(=O)c1c(C)oc2ccc(O)c(CN3CCCC3)c12
i | -0.33 | CC1CCN(C(=O)CSc2nc(-c3ccccc3)nc3cc(=O)[nH]n23)CC1
i | -0.86 | Cc1cc(-c2cc(S(=O)(=O)N3CCCCCC3)c(C)s2)on1
i | 0.04 | CCn1c(=O)c2ccn(CC(=O)Nc3cccc(Cl)c3)c2n(CC)c1=O
i | 1.05 | CN1CC(O)C(O)C(O)C1CO (stereo not given)
i | 0.2 | CN(C)CC(=O)N1c2ccccc2CCc2ccc(NC(=O)c3ccccc3)cc21
+ | -1.43* | CC(C)c1nnc(-c2ccc(S(=O)(=O)NC3CCCC3)o2)o1
i | 0.99 | O=S1(=O)N=CN(c2ccccc2F)c2ncccc21
i | -0.4 | C=CCOc1c(Cl)cc(CNCCNC(=O)c2nonc2N)cc1OC
i | 1.43 | COc1ccccc1CC(=O)Nc1ccc(-c2noc(-c3ccc(Cl)cc3)n2)cc1
i | -0.19 | NC1(C(=O)O)CC1
i | -0.66 | CCOCCCNC(=O)NCCC1CCN(C(=O)Nc2cccc(Cl)c2)CC1
i | 0.14 | COc1ccc(Cl)cc1NC(=O)N1Cc2c(sc3c2CCN(C)C3)-n2cccc2C1C (stereo not given)
i | -0.55 | Cc1nn(-c2nc3ccccc3s2)c2c1C(c1ccc(F)c(Br)c1)CC(=O)N2 (stereo not given)

# Screening data from PubChem.

# Some of the compounds tested, so the mix of outcomes need not match the whole.
